miR-21 FLuc = raises the signal of a miR-21 reporter; HeLa miR-21 FLuc reporter, luciferase, 48 h; Potency, µM (doses to about 38.3 µM), for the others: at the top dose reporter change, positive = more light; 340,000 tested, under 10 active; active = well fitted rising curve with a large enough effect; inconclusive = small, poorly fitted or top-dose-only effect; inactive = no such curve, though single readings can be large or run the other way;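 also: % of control where 0% means no effect; miR-21 action dims this reporter so a rising signal means less miR-21 action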
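HeLa cells stably expressing CMV-driven firefly luciferase with a downstream miR-21 binding sequence, endogenously expressing miR-21, were treated with titrations (up to about 40uM final) for 48 hours at 37 degree Celsius. Luciferase luminescence was read after lysis.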
Rango dissoc inh = inhibition of RanGTP-driven Rango-importin beta dissociation | O95149+P62826 | Biochemical FRET Rango-importin beta, RanGTP-induced dissociation | Potency, µM (top dose mostly 46.1 µM), for the others: top-dose activity change, negative = inhibition | 340,000 tested, 0.071% active; active means falling FRET ratio curve, often poorly fitted, with flat reads before Ran was added; inconclusive means other falling curves, or compound fluorescence or quenching; inactive means flat or rising ratio curve;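 also: potency is read from the fitted curve at half-maximal effect; % of control where 0% means no effect; nearly all actives have a fitted effect of over 45% in size; -100% = wells without RanGTP and RCC1; the record marks most hits as doubtful in a second field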
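Rango FRET biosensor (snurportin-1 IBB flanked by N-terminal EYFP and C-terminal CFP10) at 0.1 uM, with 0.25 uM importin beta in PBS, 1mM DTT, 0.02% Tween-20, 0.1% BSA. 0.6 uM Ran, 2mM GTP and 0.2 uM RCC1 were then added for 45 min at room temperature. Inhibition read as loss of FRET rise.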
GLA inh pH 4.5 = blocks human alpha-galactosidase A at pH 4.5; P06280; purified enzyme, 4-MU-alpha-Gal fluorescence, pH 4.5; activity change, negative = inhibition, % at 105 µM; 230,000 tested, under 10 active; inconclusive = small, poorly fitted or top-dose-only inhibition, or a rising curve; inactive = flat fitted curve, though single readings scatter; no compound was filed as active;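 also: 0% = full activity with enzyme and -100% = basal without enzyme; dose as in the result columns while the protocol names 77 µM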
Rango complex inh = Rango-importin beta binding inhibition. Q14974. Rango CFP/YFP FRET sensor + importin beta, 45 min. Potency, µM (top dose mostly 92.2 µM), for the others: at the top dose inhibition of complex formation. 340,000 tested, 0.031% active; active = rising FRET ratio curve, often small or poorly fitted; inconclusive = mostly compound fluorescence or quenching in the first reads; inactive = flat curves in all reads;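 also: potency is read from the fitted curve at half-maximal effect; 0% = DMSO wells and 100% = buffer wells lacking importin beta; nearly all actives have a fitted effect of over 15% in size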
Target sequence (Q14974 whole entry, looked up): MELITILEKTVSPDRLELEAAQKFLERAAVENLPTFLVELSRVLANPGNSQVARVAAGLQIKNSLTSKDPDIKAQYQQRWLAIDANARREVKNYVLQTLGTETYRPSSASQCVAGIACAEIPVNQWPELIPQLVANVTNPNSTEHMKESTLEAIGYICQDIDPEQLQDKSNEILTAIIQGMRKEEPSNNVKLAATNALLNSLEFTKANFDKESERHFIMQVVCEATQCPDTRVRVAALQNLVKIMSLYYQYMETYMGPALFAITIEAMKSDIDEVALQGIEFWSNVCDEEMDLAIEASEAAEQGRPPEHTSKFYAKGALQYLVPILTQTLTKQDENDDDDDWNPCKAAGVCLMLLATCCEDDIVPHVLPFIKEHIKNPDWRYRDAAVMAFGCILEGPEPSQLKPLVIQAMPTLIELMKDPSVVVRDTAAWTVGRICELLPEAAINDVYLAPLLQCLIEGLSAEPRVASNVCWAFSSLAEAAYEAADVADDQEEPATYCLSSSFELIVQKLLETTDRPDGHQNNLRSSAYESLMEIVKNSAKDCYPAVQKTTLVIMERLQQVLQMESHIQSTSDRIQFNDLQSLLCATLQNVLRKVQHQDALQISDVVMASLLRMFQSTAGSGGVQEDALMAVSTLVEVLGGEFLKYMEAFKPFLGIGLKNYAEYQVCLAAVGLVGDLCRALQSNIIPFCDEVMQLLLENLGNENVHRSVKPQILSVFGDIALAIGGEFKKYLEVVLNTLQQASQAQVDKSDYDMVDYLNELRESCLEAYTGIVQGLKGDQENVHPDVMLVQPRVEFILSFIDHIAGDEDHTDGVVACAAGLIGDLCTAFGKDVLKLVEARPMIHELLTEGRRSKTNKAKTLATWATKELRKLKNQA
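FRET biosensor (snurportin 1 IBB flanked by EYFP and cerulean), 50 nM, with compound 5 min, then 0.125 microM importin beta in PBS, 1 mM DTT, 0.02% Tween-20, 0.1% BSA. CFP/YFP ratio read after 45 min at room temperature; pre-read flags interference.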
Active calls of the source: *; ? = inconclusive; · = not tested or not shown; & = joins results of further samples. Some of the compounds tested; count on the stated rates, not on these rows.

mol,miR-21 FLuc,Rango dissoc inh,Rango complex inh,GLA inh pH 4.5
C[C@H](CO)N1C[C@H](C)[C@@H](CN(C)Cc2ccc(-c3ccccc3)cc2)Oc2c(NC(=O)Nc3ccc4c(c3)OCO4)cccc2C1=O,·,0%,-1.7%,·
CCOC(=O)c1ccc(N2C=C(C(=O)OC)C(c3cccc(O)c3)C(C(=O)OC)=C2)cc1,-5%,-3%,-1.5%,·
CCCc1ccc(OCc2ccc(C(=O)N3CCSCC3)o2)cc1,-57%,-4%,5.1%,·
COc1cc(CC(=O)O)ccc1OCc1ccccc1,0%,-8%,5.1%,-4
Cc1c(C(C)C)c(=O)n(-c2ccc(S(=O)(=O)NC3CCCCC3)cc2)n1C,21%,13%,1.8%,3
CCOC(=O)c1c(C)[nH]c(C)c1C(=O)COC(=O)c1ccc(S(=O)(=O)N(CC)CC)cc1,-5%,-9%,0.2%,-7
COCCCNS(=O)(=O)c1ccc(OC)c(Cl)c1Cl,-1%,2%,4.4%,1
Cc1ccc(OCc2nnc(SCc3ccc(C#N)cc3)n2-c2ccc(C)cc2)cc1,3%,-16%,5.5%,-6
O=c1c2[nH]cnc2n(-c2ccc(F)cc2)c(=O)n1Cc1ccccc1,-13%,-9%,-0.8%,·
CCOC(=O)c1[nH]c2ccccc2c1NC(=S)Nc1cc(C)ccc1C,1%,21%,5.3%,3
CCOC(=O)C1=C(C(C)=O)C(c2cccnc2)C(C#N)=C(N)O1 (stereo not drawn),-11%,?,?,-7
CCC1(c2ccc(F)cc2)NC(=O)N(CC(=O)N2CC(=O)Nc3ccccc32)C1=O (stereo not drawn),·,16%,-3.5%,·
Cc1cc(Cl)ccc1OCC(=O)N1CCN(c2ncccn2)CC1,-7%,1%,-4.1%,-18
Cn1c(=O)c2[nH]c(CNCc3ccccc3Cl)nc2n(C)c1=O,3%,?,?,-12
COC(=O)c1cc(C(=O)Nc2nnc(CC(C)(C)C)s2)cc([N+](=O)[O-])c1,-4%,-4%,-4.2%,-4
Cc1ccccc1-c1nc(CS(=O)(=O)CC(=O)NC2CCCC2)c(C)o1,-2%,-5%,-1.1%,·
Cc1cccc2c1[nH]c1nc(N/N=C\c3ccco3)nnc12,-4%,·,·,-5
COc1ccccc1CNC(=O)c1ccc(NC(=O)CC2SC(N3CCCC3)=NC2=O)cc1 (stereo not drawn),·,0%,-0.1%,·
CCOc1ccc(NC(=O)c2ccccc2NC(=O)CN2CCCCCC2)cc1,·,0%,-1.0%,·
COc1cccc(NC(=O)c2oc3ccccc3c2NC(=O)c2ccc3c(c2)OCO3)c1,-14%,-20%,4.3%,-26
COc1cc(/C=C/C(=O)N(C)c2ccccc2C(=O)O)cc(OC)c1OC,-11%,-19%,?,-3
O=C(OCC(=O)N(CCc1ccccc1)Cc1ccccc1)c1cccc(S(=O)(=O)N2CCOCC2)c1,·,-19%,-0.6%,·
COc1ccccc1NC(=O)NNC(=O)C(C)Oc1ccc2ccccc2c1 (stereo not drawn),0%,5%,-1.5%,·
COc1ccccc1N1CCN(c2nnc(-c3ccc(F)cc3)c3ccccc23)CC1,-1%,-3%,-1.6%,-3
C=CCNC(=O)NC(=S)c1ccccc1,-15%,8%,0.1%,5
COCCC1CCCCN1Cc1cn(-c2ccccc2)nc1-c1ccc2c(c1)OCO2 (stereo not drawn),-5%,5%,-0.6%,-4
O=S1(=O)N=C(N2CCOCC2)c2ccccc21,-1%,6%,-2.0%,6
COc1ccc(CCN2C(=O)CS/C2=N\NC(=O)c2ccc(C(C)(C)C)cc2)cc1OC,19%,-10%,1.5%,4
Cc1ccc(CCNC(=O)CN2C(=O)COc3ccc(S(=O)(=O)N4CCC(C)CC4)cc32)cc1,-1%&-2%,-10%,-5.5%,·
O=C(c1cc2cc([N+](=O)[O-])ccc2oc1=O)N1CCOCC1,-18%,20%,-1.5%,2

(listing goes on)
mol,miR-21 FLuc,Rango dissoc inh,Rango complex inh,GLA inh pH 4.5
O=C1CCC(=O)N1c1ccc(S(=O)(=O)N2CCCC2)cc1,-2%,-10%,4.0%,-3
Cc1cc([N+](=O)[O-])ccc1NC(=O)Nc1ccc(F)cc1F,2%,24%,-0.5%,-9
Cc1ccc(N2CC(C(=O)N3CCOCC3)CC2=O)cc1Cl (stereo not drawn),0%,20%,0.1%,·
Cc1ccc(NS(=O)(=O)c2ccc(C(=O)NNC(=O)c3ccccc3O)cc2)cc1,·,5%,1.3%,·
COc1ccc2[nH]c3c(=O)n(CCCCC(=O)NCCC(C)C)c(=S)[nH]c3c2c1,1%,7%,2.2%,-1
Cc1cccc(C2NC(=O)c3c(sc(C)c3C)N2)c1O (stereo not drawn),-15%,-15%,?,4
CC(C)COc1ccc(N)cc1OCC(C)C,1%,20%,-1.4%,-4
CN(C(=O)CN1C(=O)NC(C)(c2cccc(Br)c2)C1=O)C1CCCCC1 (stereo not drawn),·,8%,-4.8%,·
CNC(=S)NNC(=O)c1ccccc1Br,-4%,-8%,0.0%,-6
Cc1ccc(CCNC(=O)c2coc3nc4ccccc4nc23)cc1,-11%,?,?,7
Cc1cc(C)cc(C(=O)NC(CC(N)=O)c2ccc(N3CCN(C)CC3)c([N+](=O)[O-])c2)c1 (stereo not drawn),0%,2%,?,·
Oc1ccccc1/C=N/Nc1ncc(Br)cn1,-16%,4%,-1.7%,-5
CCOc1ccccc1NC(=O)c1cc(Cl)ccc1NC(=O)c1ccco1,0%,-9%,-1.5%,3
CCCC(=O)NC(=S)Nc1cccc(-c2nc3ncccc3o2)c1,-5%,1%,1.6%,4
COc1ccc(-c2oc3ccccc3c(=O)c2OC(=O)c2ccc(C)cc2)cc1,-5%,5%,-2.8%,7
Cc1ccc2cc(CN(CCCO)S(=O)(=O)c3cccc4nsnc34)c(=O)[nH]c2c1,8%,38%,4.5%,-3
Cc1nn(Cc2cccc(F)c2)c(C)c1NC(=O)c1c([N+](=O)[O-])c(C)nn1C,-4%,-10%,1.1%,7
COC(=O)CCCNC(=O)c1ccccn1,3%,5%,-2.3%,11
COC(=O)c1c(NC(NC(=O)CC(C)C)C(Cl)(Cl)Cl)sc2c1CCC2 (stereo not drawn),4%,-20%,-0.9%,0
O=S(=O)(NC1Cc2ccccc2C1)c1ccccc1,2%,15%,-2.6%,·
COc1ccc(S(=O)(=O)NCc2cccs2)cc1,2%,5%,-1.2%,-4
Nn1c(SCC(=O)NC2CCCCC2)nnc1-c1ccc(Cl)cc1,-2%,1%,0.3%,6
COc1ccccc1N(CC(O)Cn1ccnc1C)S(=O)(=O)c1ccc(C)cc1 (stereo not drawn),0%,2%,1.3%,2
CCOC(=O)c1ccc(NC(=O)NCCN2CCCCC2)cc1,-9%,-10%,2.0%,-4
NC(=O)CSc1nc(-c2ccccc2)nc2c1CCCC2,4%,2%,3.6%,3
Brc1ccc(-c2nnc3n2CCCCC3)cc1,-8%,-13%,2.2%,-4
CCN(C(=O)C(C)N1C(=O)/C(=C/c2ccco2)SC1=S)C1CCS(=O)(=O)C1 (stereo not drawn),0%,-2%,1.5%,·
CCCc1nnc(NC(=O)C(C)N2C(=O)C3C4C=CC(C4)C3C2=O)s1 (stereo not drawn),4%,?,0.4%,4
COc1ccc(OC)c(N(C(=O)c2ccco2)C(C(=O)NC2CCCC2)c2cc(OC)c(OC)c(OC)c2)c1 (stereo not drawn),0%,5%,-0.5%,·
CC(C)(C)NC(=O)Cn1c(SCC(=O)N2CCCCCC2)nc2ccccc21,-7%,6%,4.5%,4

Two entries from above, with the structure last.
miR-21 FLuc | Rango dissoc inh | Rango complex inh | GLA inh pH 4.5 | Molecule
0% | 2% | ? | · | Cc1cc(C)cc(C(=O)NC(CC(N)=O)c2ccc(N3CCN(C)CC3)c([N+](=O)[O-])c2)c1 (stereo not drawn)
-16% | 4% | -1.7% | -5 | Oc1ccccc1/C=N/Nc1ncc(Br)cn1

(next part)
mol,miR-21 FLuc,Rango dissoc inh,Rango complex inh,GLA inh pH 4.5
CC(C)CCn1c(=O)c2ccccc2n2c(CCC(=O)NCC3CCCO3)nnc12 (stereo not drawn),-3%,37%,0.1%,·
NC(=O)C1CCN(c2oc(-c3ccc(F)cc3)nc2S(=O)(=O)c2ccccc2)CC1,·,10%,-2.2%,·
O=C(NCCc1c[nH]c2ccccc12)c1ccc2c(c1)OCO2,-54%,5%,3.8%,·
CCc1nc(C)cn1S(=O)(=O)c1ccc(Br)cc1,-4%,-6%,-1.6%,·
Cc1ccc(O)c(NC(=O)CSc2n[nH]c(-c3ccccc3)n2)c1,7%,2%,2.2%,·
Cc1nn(C)c(C(=O)NNC(=O)Nc2cccc(C(F)(F)F)c2)c1Cl,7%,8%,-0.9%,2
COc1ccc(COC(=O)Nc2c(SC)nsc2SC)cc1,1%,10%,-0.1%,6
Cc1cc(-n2[nH]c(C)c(C)c2=O)nc(-c2ccccc2O)n1,24%,11%,1.0%,0
CNC(=S)N/N=C/c1cn(Cc2c(F)cccc2Cl)c2ccccc12,29%,-10%,-0.7%,-3
CCC(Oc1ccc2c(c1)C(=O)CC(C)(C)O2)C(=O)NCCN1CCCCCC1 (stereo not drawn),-5%,-9%,2.3%,13
CCCN(CCC)CCNS(=O)(=O)c1ccc2c(c1)oc(=O)n2C,-5%,3%,-2.2%,-4
Cc1ccc(-n2nnc3c(=O)n(Cc4ccccn4)cnc32)cc1C,0%,-6%,-3.5%,4
C#CCOc1ccc(/C=C2/C(=O)NN(c3ccccc3)C2=O)cc1OC,-4%,0%,-1.4%,·
O=C(NN=C1CCCCCC1)C(=O)Nc1cccc(Br)c1,-9%,-6%,2.0%,5
CCN=c1scc(C)n1/N=C/c1cc(Br)c(O)c(Br)c1,1%,?,?,8
CCOc1ccc(-n2cnnn2)cc1S(=O)(=O)NCc1ccccc1,-1%,1%,0.3%,3
O=C(NCc1cccnc1)c1cnc2sccn2c1=O,-7%,-2%,-0.9%,-3
Cn1c(=O)[nH]c(=O)c2c1nc(NCCCO)n2CCOc1ccccc1,-6%,-12%,-2.1%,-4
CCN1CCCn2c1nc1c2c(=O)n(C)c(=O)n1C,1%,?,4.4%,-5
CC(=O)OC[C@H]1COc2ccc3ccccc3c2[C@H]1N(C)C(C)=O,2%,22%,-1.8%,8
COc1ccccc1-c1nnc(N)s1,-9%,18%,2.8%,-15
CC(=O)COc1cc(C)cc2oc(=O)cc(-c3ccccc3)c12,-2%,14%,-0.5%,-14
CCc1nnc(NS(=O)(=O)c2ccc(N)cc2)s1,-3%,1%,0.3%,·
Cc1ccc(C)c(N(CC(=O)N2CCCCCC2)S(C)(=O)=O)c1,-5%,9%,2.4%,·
COc1ccc(-c2cccc(NC(=O)c3ccco3)c2)nn1,·,28%,-2.8%,·
OC(COc1ccc(-c2ccccc2)cc1)CN1CCOCC1 (stereo not drawn),-33%,·,·,-1
C=CCNc1nc(C(=O)OCC(=O)c2ccc(OC)cc2OC)cs1,·,9%,0.3%,·
O=C1OC(CCl)CN1Cc1ccc([N+](=O)[O-])cc1 (stereo not drawn),·,0%,2.8%,·
COc1ccc(NC(=O)c2sc(Cl)nc2-c2ccccc2)cc1,13%,-6%,0.1%,-6

High-throughput results (PubChem BioAssay)
